Screens deposited in PubChem BioAssay by several laboratories.
RecA intein inh = blocks M. tuberculosis RecA intein splicing; cell-free RecA intein splicing, fluorescence; 0.75% of 290,000 active; inhibition, %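 (about 9 µM by stock and volumes)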; P9WHJ3; AID 2221; in the data active means inhibition above about 30%; inconclusive means no clear call, values can overlap the other calls;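 further: 0% = vehicle wells and 100% = reference inhibitor control wells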
Target sequence (P9WHJ3 whole entry, looked up): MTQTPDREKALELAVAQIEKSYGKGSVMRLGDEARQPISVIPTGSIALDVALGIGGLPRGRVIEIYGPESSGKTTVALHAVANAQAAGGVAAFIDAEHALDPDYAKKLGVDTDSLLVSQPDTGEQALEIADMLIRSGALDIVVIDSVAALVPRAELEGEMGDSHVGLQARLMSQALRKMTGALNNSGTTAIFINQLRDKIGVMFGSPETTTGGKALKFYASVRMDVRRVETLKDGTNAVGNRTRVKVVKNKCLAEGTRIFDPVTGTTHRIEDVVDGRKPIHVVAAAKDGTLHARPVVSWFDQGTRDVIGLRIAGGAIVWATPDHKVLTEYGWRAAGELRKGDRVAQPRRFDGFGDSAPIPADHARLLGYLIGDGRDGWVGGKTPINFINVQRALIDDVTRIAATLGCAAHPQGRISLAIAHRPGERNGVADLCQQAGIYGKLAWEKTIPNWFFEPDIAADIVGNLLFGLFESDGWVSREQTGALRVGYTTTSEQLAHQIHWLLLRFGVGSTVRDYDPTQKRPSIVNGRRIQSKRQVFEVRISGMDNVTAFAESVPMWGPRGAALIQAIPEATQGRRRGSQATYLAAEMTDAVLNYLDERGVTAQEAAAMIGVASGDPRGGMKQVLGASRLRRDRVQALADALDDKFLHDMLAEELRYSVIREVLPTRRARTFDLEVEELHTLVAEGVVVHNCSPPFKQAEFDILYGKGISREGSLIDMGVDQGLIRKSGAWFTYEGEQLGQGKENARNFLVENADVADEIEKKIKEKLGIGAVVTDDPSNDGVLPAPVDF
Arbovirus inh = blocks arbovirus infection | inhibition, % at 10 µM | 0.37% of 200,000 active | arbovirus infection cell-based antiviral screen;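 active means inhibition from about 30%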;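 further: bluetongue infection of BSR cells; cell survival read as ATP light after 72 h; 0% = infected wells without compound and 100% = uninfected wells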
YopH inh = inhibitors of Yersinia enterocolitica YopH tyrosine phosphatase; fluorescence Ex485/Em525; 0.16% of 140,000 active; AID 898; inhibition, %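 (about 10 µM by stock and volumes)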;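 active means inhibition of 50% or more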;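 further: controls were vehicle for no effect and minimum signal wells for full effect; inactives centre near -20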
Mtb H37Rv = M. tuberculosis H37Rv growth inhibitors, H37Rv strain (AID 1626) | M. tuberculosis H37Rv growth inhibition; higher % means a stronger effect | one-dose inhibition, % at 10 µM; IC50 in µM for titrated hits | 0.95% of 220,000 active;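 active means confirmed in a dose series; inconclusive means inhibition above 80% but not taken into the dose series; inactive means below 80% or under 30% at every dose of the series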;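 further: bacteria incubated seven days before Alamar blue readout; 0% = bacteria only wells and 100% = bacteria with antibiotic wells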
Mtb bLac sens = beta-lactam sensitization of Mtb H37Rv | M. tuberculosis H37Rv growth with meropenem, percent inhibition; hits of this screen are not shown here | inhibition, % at 25 µM | AID 434955 | 0.27% of 330,000 active;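 active means about 74% or more and at least 40 points above the plate without the antibiotic, then above 30% in a dose series; inconclusive means first-round hits that could not be retested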;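 further: growth measured after seven days incubation then overnight dye step; 0% = bacteria only wells and 100% = bacteria with antibiotic; twin plates without the antibiotic show which effects depend on it; some results filed as inactive read as strong as hits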
Arbovirus inh repeat = further read-out of Arbovirus inh, marked with its call; inhibition, %; measured here: 10K subset replicate screen; many hits read low in the repeat;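 first of two repeat runs on a subset; 0% = infected and 100% = uninfected wells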
Active calls of the source: *; ? = inconclusive; / = no result given. Not all compounds are listed (hit frequency here may not be typical).

SMILES	RecA intein inh	Arbovirus inh	YopH inh	Mtb H37Rv	Mtb bLac sens	others
O=C(Cc1ccccc1F)NC1CCCN(Cc2ccc(Cl)cc2)C1 (stereo not given)	2.9	/	/	/	0
COc1cc2nc(SCC(=O)NCCc3ccccc3)n(Cc3ccco3)c(=O)c2cc1OC	-1.6	6	-36	1%	-2
COc1ccc(-c2nc(CS(=O)CC(=O)NCCCN3CCCC(C)C3)c(C)o2)cc1OC (stereo not given)	-2.9	/	/	/	5
CN1C(=O)c2ccc(C(=O)NCc3ccc4c(c3)OCO4)cc2C1=O	-1.2	2	-12	-8%	0
CN(c1ccc(C(=O)N2CCN(c3ccccc3F)CC2)cc1)S(=O)(=O)c1ccccc1	3.6	/	/	/	1
CCN1CCN(c2ccc(S(=O)(=O)N3CCCCC3)cc2NC(=O)c2cccc(C)c2)CC1	-0.9	/	/	/	3
CCOC(=O)N1CCN(C(=O)C(=O)NN)CC1	-0.9	-3	/	-1%	-13
CCn1c2ccc(F)cc2c2nc3ccccc3nc21	-4.9	4	/	48%	28
Cc1cccc(NC(=O)C2CCN(C(=O)[C@@H]3Cc4ccccc4CN3)CC2)c1	0.4	/	/	/	-4
O=C(N/N=C/c1ccco1)Nc1ccccc1	1.5	-8	-2	-2%	3
COc1ccc(OC)c(/C=N/N(C)c2ccccc2)c1	-4.0	-28	-1	59%	99
COc1cc(C(=O)NCC(c2cccs2)N2CCOCC2)cc(OC)c1OC (stereo not given)	-1.2	/	/	/	-3
O=C(O)C=C(Br)Br	-2.1	/	/	/	-12
CN(C)/C=C(\C#N)C(=O)Nc1ccccc1	3.5	1	/	-2%	2
CCOC(=O)N1CCN(C(=O)Cc2ccc(-n3c(=S)[nH]c4ccccc4c3=O)cc2)CC1	-0.3	9	-16	-5%	-6
Cc1cccc(NC(=S)Nc2ccc(Cl)c(Cl)c2)c1	14	-23	/	?	80
CSc1ccc(S(=O)(=O)Nc2c(C)cccc2C)cc1	0.8	-3	-24	0%	12
CC1CCCN(Cc2c(C(=O)N3CCc4ccccc4C3)nc3ccc(Cl)cn23)C1 (stereo not given)	-1.8	/	/	/	-2
CCCCc1nnc(NC(=O)CN2C(=O)c3ccccc3C2=O)s1	-2.0	2	/	1%	6
Cc1cc(=O)[nH]c(Cc2ccc(OC(C)C)cc2)n1	-0.8	9	-45	1%	1	Arbovirus inh repeat=-2
O=C(Cn1ccn(-c2ccc(F)c(F)c2)c(=O)c1=O)NCCc1ccccc1	3.8	/	/	/	1
O=C(CNC(=O)c1ccccc1F)NC1=NCCS1	1.4	/	/	/	-2
Cc1cc(C)c(S(=O)(=O)c2ccccc2C)c(OCCO)n1	1.3	4	/	5%	5
Cc1onc(-c2c(Cl)cccc2Cl)c1C(=O)N1CCN(c2ccccc2F)CC1	-1.9	/	/	/	-12
CCCc1nc(NC2CCCCC2)c(C#N)c2c1COC(C)(C)C2	2.6	-22	-49	3%	-2
COc1ccc(/C=N/NC(=O)c2nc(Cl)c(Cl)c(N)c2Cl)cc1COc1ccc(F)cc1F	-0.6	-6	-26	13%	30
O=C(Nc1cc(-c2nc3ncccc3o2)ccc1Cl)c1ccco1	-1.6	/	/	/	8
CSc1ccc(/C=N/n2c(C)nnc2C)cc1	1.5	18	/	-3%	0
CCOc1ccccc1NC(=S)N1CCN(c2cccc(C)c2C)CC1	11	/	/	/	6
Fc1ccc(C(c2nnnn2C2CCCCC2)N2CCCC2)cc1 (stereo not given)	-3.4	1	/	-6%	-4
COc1ccc(S(=O)(=O)NNC(=O)Cc2csc(C)n2)cc1[N+](=O)[O-]	-3.1	/	/	/	-13
Cc1ccccc1-c1nnn(CC(=O)N(C)CC(=O)Nc2ccccc2C(F)(F)F)n1	0.2	/	/	/	-12
COc1cc(OC)cc(C(=O)Nc2ccccc2-c2nnn(CC(=O)Nc3cc(C)on3)n2)c1	-0.5	/	/	/	-2
COC(=O)c1cc(NS(=O)(=O)c2ccc(N3CCCCCC3)c([N+](=O)[O-])c2)cc(C(=O)OC)c1	2.5	7	-30	-5%	-12
COc1cc(OC)cc(C(=O)NCC(=O)NC(C)CCc2ccccc2)c1 (stereo not given)	0.2	/	/	/	-6
O=C(Nc1nnc(-c2ccccc2)s1)c1ccc(F)cc1	-1.9	-5	/	2%	2
COc1ccc2oc(C(=O)OCC(=O)N3CC(C)OC(C)C3)c(C)c2c1 (stereo not given)	-0.1	/	/	/	?
O=S(=O)(c1ccc(Cl)cc1Cl)n1ccc2cccnc21	0.1	4	/	5%	-2
Cc1cc(F)ccc1S(=O)(=O)NCC(c1cccnc1)N1CCc2ccccc21 (stereo not given)	1.3	/	/	/	10
COc1ccc(-c2cc(-c3cc(F)ccc3O)[nH]n2)cc1OC	-1.8	10	-31	23%	95
CCCCN(C)CCNC(=S)Nc1ccc2nc(N3CCN(CC)CC3)cc(C)c2c1	-1.9	/	/	/	0
Cc1ccc(CSc2nnc3ccc(-c4ccncc4)nn23)cc1	-0.2	9	/	-1%	-2
CC(=O)OC(Cn1nc(C)cc1C)c1ccccc1 (stereo not given)	-1.1	-2	-34	0%	-4
Cc1nnc(SCc2ccon2)n1-c1ccccc1	0.3	4	6	-11%	8
CCN(CC)CCNC(=O)C1c2ccccc2C(=O)N(CCOC)C1c1ccc(F)cc1 (stereo not given)	2.2	6	9	-3%	?
O=C(CNc1ccccc1Cl)N/N=C1\CCCc2ccccc21	-3.9	-2	/	-2%	5
O=S(=O)(O)c1cccc(N=Nc2c(O)ccc3ccccc23)c1	-0.9	/	/	26%	10
CC(=NC1CC1)C1=C(O)c2ccccc2C1=O	7.7	-4	-23	-3%	-6
Cc1ccc(Cl)cc1N1CCN(C(=O)c2ccc3c(c2)CCN3S(C)(=O)=O)CC1	7.8	/	/	/	10
CCCOc1ccc(-c2cn3ccccc3n2)cc1[N+](=O)[O-]	-3.3	-11	1	-1%	7

In the list so far, three contain a nitro group on carbon:
SMILES	RecA intein inh	Arbovirus inh	YopH inh	Mtb H37Rv	Mtb bLac sens	others
COc1ccc(S(=O)(=O)NNC(=O)Cc2csc(C)n2)cc1[N+](=O)[O-]	-3.1	/	/	/	-13
COC(=O)c1cc(NS(=O)(=O)c2ccc(N3CCCCCC3)c([N+](=O)[O-])c2)cc(C(=O)OC)c1	2.5	7	-30	-5%	-12
CCCOc1ccc(-c2cn3ccccc3n2)cc1[N+](=O)[O-]	-3.3	-11	1	-1%	7

The listing continues:
SMILES	RecA intein inh	Arbovirus inh	YopH inh	Mtb H37Rv	Mtb bLac sens	others
Cc1cccc(-c2nc3ccccc3c(=O)n2-n2cccc2)c1	0.3	-5	-33	-8%	-8
Cc1ccccc1Nc1nc(N)nc(CSc2nnc3sc4ccccc4n23)n1	0.1	-6	-25	-5%	-17
Cc1ccc(C)c(-n2nnnc2SCC(=O)c2c(N)n(C)c(=O)n(C)c2=O)c1	1.1	-3	/	1%	-4
O=C(NC(=S)NCCN1CCOCC1)c1ccc(Cl)cc1Cl	-1.3	-1	-7	3%	-6
CCCCNC(=S)N(CCO)Cc1cc2cc3c(cc2[nH]c1=O)OCCO3	-4.0	/	/	/	-4
C=CCn1c(O)c(/C(C)=N/N2CCCCCC2)c(=O)[nH]c1=O	-8.9	/	/	1%	-7
O=C(CN1C(=O)NC2(CCCCC2)C1=O)Nc1ccc(N2CCOCC2)cc1	-2.0	-6	-8	38%	4
CC(C)c1ccc(C(=O)NCCCc2ccccc2)cc1	7.6	1	0	-2%	-6
O=C(NC1CCCC1)C(=O)c1c[nH]c2ccccc12	-1.9	/	/	/	-12
CCN1C(=O)/C(=C\C=C\c2ccccc2[N+](=O)[O-])SC1=S	/	-9	/	-6%	/
COCCNc1oc(/C=C/c2ccccc2OC)nc1S(=O)(=O)c1ccccc1	-16	/	/	/	12
COc1ccc2nc(N)sc2c1	-2.4	5	-19	42%	52
CN1N=C(c2ccc(F)c(F)c2)CSC1=NCc1ccccc1	2.2	15	/	6%	19
Cc1cc(=O)oc2cc(OCC(=O)N3CCC(O)CC3)c(Cl)cc12	-1.6	/	/	/	1
NC[C@@H]1O[C@H](C23CC4CC(CC(C4)C2)C3)Cc2c1ccc(O)c2O	-1.0	/	/	-2%	4
CC1CCC2(CC1)NC(=O)N(CC(=O)Nc1ccccc1-c1ccccc1)C2=O (stereo not given)	-0.7	13	/	2%	2
O=C(c1ccc(S(=O)(=O)Nc2cccc(C(F)(F)F)c2)cc1)N1CCN(c2ccccc2O)CC1	9.2	/	/	/	2
CCC(=O)Nc1c2c(nn1-c1ccc([N+](=O)[O-])cc1)CS(=O)(=O)C2	0.7	/	/	/	7
CC(C)CC(NC(=O)OC(C)(C)C)c1cn([C@@H](Cc2ccc(O)cc2)C(=O)N2CCN(C(=O)OC(C)(C)C)CC2)nn1 (stereo not given in full)	1.7	-2	/	-4%	-8
COc1ccc(-c2cn(Cc3ccc(C(=O)NCc4ccc(C)cc4)cc3)c(C(C)N)n2)cc1 (stereo not given)	4.4	/	/	/	98

3 compounds picked at random from those above:
SMILES	RecA intein inh	Arbovirus inh	YopH inh	Mtb H37Rv	Mtb bLac sens	others
O=S(=O)(O)c1cccc(N=Nc2c(O)ccc3ccccc23)c1	-0.9	/	/	26%	10
Cc1cc(F)ccc1S(=O)(=O)NCC(c1cccnc1)N1CCc2ccccc21 (stereo not given)	1.3	/	/	/	10
O=C(Nc1cc(-c2nc3ncccc3o2)ccc1Cl)c1ccco1	-1.6	/	/	/	8

The listing continues.
SMILES	RecA intein inh	Arbovirus inh	YopH inh	Mtb H37Rv	Mtb bLac sens	others
COc1ccc(-c2cc(C(F)(F)F)n3nc(C(=O)Nc4c(C)n(C)n(-c5ccccc5)c4=O)cc3n2)cc1	/	18	/	8%	/
CCC(C)(C)NC(=O)c1sccc1Oc1ccc(F)cc1[N+](=O)[O-]	2.5	1	/	3%	4
CN(C(=O)c1ccc(S(=O)(=O)NC2CCCC2)cc1)C1CCCCC1	2.6	2	-16	6%	0
CC1=C(C(=O)N2CCOCC2)C(c2ccsc2)C2=C(CCCC2=O)N1 (stereo not given)	1.7	14	-18	-7%	-3
COc1ccc(N/N=C(\C=N\O)C(=O)c2ccc(OC)cc2)cc1	-1.2	-3	-14	?	84
COc1cc(/C(C)=N/NC(=O)CSc2nncn2C)ccc1OCc1ccccc1Cl	0.1	4	-15	3%	7
N#CC1(c2ccccc2)CCN(S(=O)(=O)c2ccc(OC(F)(F)F)cc2)CC1	0.0	/	/	/	-4
c1ccc(Cn2c(-c3ccccc3)c[n+]3c2SCCC3)cc1	0.0	/	/	2%	-10
CCCc1ccc(OCCNC(C)=O)cc1	-0.8	5	-4	-1%	-2
Cc1c(C(=O)O)oc2c1/C(=N\O)CC(C)(C)C2	2.9	-9	-19	-7%	-4
C=CCn1c(SCc2csc(-c3ccc(C)cc3)n2)nnc1-c1ccccc1OC	4.4	-22	0	17µM*	71
O=S1(=O)CC=C(CSc2nc3ccccc3[nH]2)C1	-2.1	7	-41	4%	-9
COc1ccc2oc(C(=O)N3CCN(C(=O)c4ccco4)CC3)c(C)c2c1	4.7	/	/	/	-5
O=C(NCc1ccc2c(c1)OCO2)C1CCN(c2ccc(S(=O)(=O)N3CCCC3)cc2)CC1	2.3	-15	11	-4%	-7	Arbovirus inh repeat=-11
COc1ccc(NC(=O)CSc2nnc3c4c(nc(-c5ccccc5)n23)CC(C)(C)OC4)cc1	0.0	7	-27	70%	13
COc1ccc(CNC(=O)c2ccc3ccccc3n2)cc1	2.5	/	/	/	-1
CC(=O)c1ccc(OCCOc2ccc(C#N)cc2)cc1	0.1	/	/	11%	3
Cc1onc(-c2ccccc2)c1C(=O)Nc1ccc(NC(=O)c2c(-c3ccccc3)noc2C)cc1	3.3	/	/	/	-2
COc1ccc(-c2oc3ccccc3c2C(=O)OCc2ccc(O)cc2)cc1	6.2	/	/	/	0
Cc1ccccc1CSc1nncn1N	-0.9	8	-7	5%	17
CCOC(=O)c1sc(=NC(=O)c2cccc(Br)c2)n(C)c1C	0.8	/	/	/	5
CCC(C)Sc1nnc(NS(=O)(=O)Cc2ccccc2)s1 (stereo not given)	2.5	/	/	/	4
O=C(NCc1ccco1)/C(=C\c1cccs1)NC(=O)c1ccccc1	1.2	5	/	-2%	-3
Cc1cc(OCCCCOc2ccc(C#N)cc2)ccc1[N+](=O)[O-]	0.1	/	/	16%	14
Cc1onc(-c2ccccc2)c1C(=O)NCc1cccnc1	1.7	-3	-17	-7%	2	Arbovirus inh repeat=5
Nc1ncnc2c1cnn2-c1ccccc1	1.4	13	-6	-7%	-5
Cc1ccc(CNC(=O)NC2CCCCC2)cc1	2.2	-2	-7	-14%	0
CCC(C)[C@H](N)c1nnc(SCC(=O)Nc2cccc(Cl)c2)o1 (stereo not given in full)	2.4	0	-7	-7%	7
CCCC[C@H]1COCCS(=O)(=O)N1Cc1ccccc1F	-0.8	/	/	/	-12
Cc1ccc(/C=C2\SC(=S)N(CCCC(=O)NC3CCCC3)C2=O)cc1	-2.5	/	/	/	0
